BJeLR viability – BJeLR cell viability loss; inhibition, % (test concentration not listed); 300,000 compounds, 0.17% hits; BJeLR (HRASV12) viability, CellTiter-Glo ATP luminescence, 48 h; reference of the scale not given here;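 active = replicate mean above 50%; inconclusive = above 50% but judged a plate artefact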;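 also: 50 nL library stock added to about 25 µL; numbers are from one replicate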
Bead autofluor – compound fluorescence in toxin protease inhibitor counterscreen; compound autofluorescence counterscreen, microsphere flow cytometry; stronger effect = higher value; fluorescence intensity (test concentration not listed); 360,000 compounds, 3.1% hits;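 active = at least 3 SD above the mean of all compounds, about 16000 in these data; inconclusive = too few beads counted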;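 also: 100 nL of 1 mM stock went into each well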
Sa RN4220 lethal – S. aureus RN4220 growth inhibition | OD600, 16 h | inhibition, % (no concentration beside the values) | 330,000 compounds, 0.33% hits | AID 1259311;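 active = z-score of -3 or lower and OD600 up to 0.18 on both plates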;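 also: plate controls were untreated cells for no effect and reference antibiotic for full effect; stock transfer was 100 nL into about 80 µL; one replicate is shown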
PrP 5UTR inh – suppresses PrP 5' UTR mRNA reporter expression; cell-based PrP 5' UTR mRNA reporter, plate reader; inhibition, % (no concentration beside the values); 340,000 compounds, 0.35% hits; AID 488862;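 active = every replicate at 50% or more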;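 also: 0 = median of the neutral control wells; tested in H4 reporter cells; numbers are from one replicate; inactives centre near -14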
Sa ugtP lethal – growth inhibition of S. aureus ugtP deletion strain. 330,000 compounds, 0.54% hits. AID 1259309. S. aureus RN4220 ugtP deletion, OD600 growth, 16 h; some inactives read as strong as hits. growth inhibition, % (no concentration beside the values);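 active = z-score under -3 and OD600 up to 0.15 on both plates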;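 also: plate controls were untreated wells for no effect and antibiotic for full effect; wells of about 80 µL received 100 nL stock; the first replicate is given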
Mtb hypoxia rep – reduces hypoxia-regulated biosensor signal in M. tuberculosis | M. tuberculosis hypoxia-regulated fluorescent reporter, fluorescence | fluorescence inhibition, % (no concentration beside the values) | 300,000 compounds, 0.1% hits | AID 1159583;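 active = 35 to 45% if threefold the growth effect, above 45% if 1.5-fold the growth effect; inactive = the rest, general growth blockers included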;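 also: wells of about 50 µL received 100 nL stock; 0% = vehicle wells and 100% = reference inhibitor wells; whole bacteria with a GFP reporter of the hypoxia response; strong numbers were not always called active; many hits fall short of the cut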
Mtb hypoxia rep growth – further read-out of Mtb hypoxia rep, marked with its call; growth inhibition, %; measured here: M. tuberculosis growth (absorbance);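 0% = vehicle and 100% = reference antibiotic; read after six days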
* marks the source's active call; other numbers are inactive results; ? = inconclusive; . = no result given.

Screens in order: BJeLR viability, PrP 5UTR inh, Sa ugtP lethal, Mtb hypoxia rep growth, Bead autofluor, Sa RN4220 lethal, Mtb hypoxia rep
CCN1CCC(n2nccc2NC(=O)c2ccccc2Cl)CC1
  -6, -18, 3, 0, 5696, 1.7, -7
Oc1ccc(C[C@H]2CNC(=S)N2CCc2cc(C(F)(F)F)cc(C(F)(F)F)c2)cc1
  -14, -17, ., ., 3941, ., .
CC(=O)Nc1cccc(C(=O)Nc2nc(C)cs2)c1
  14, -12, 3, 8, 4594, 0.7, 4
Cc1[nH][nH]c(=O)c1C(c1ccc(-c2ccc(Cl)c(C(=O)O)c2)o1)c1c(C)[nH][nH]c1=O
  ., -34, 5, -3, 4564, 4.4, 10
COc1ccc(NC(=O)Nc2cccc3c2OC(CN(C)C(=O)NC2CCCCC2)C(C)CN(C(C)CO)C3=O)cc1 (configuration not stated)
  ., ., 0, -4, ., 2.3, 1
COCCCN1C(=O)C(=O)/C(=C(/O)c2ccc(S(=O)(=O)N3CCOCC3)cc2)C1c1ccc(OC)cc1 (configuration not stated)
  -11, -7, -5, -6, 5270, -0.1, -4
CCn1c(C)nc2cc(C(=O)NNS(=O)(=O)c3c(C)c(C)cc(C)c3C)ccc21
  -6, -26, -6, 10, 24040*, 7.0, 8
CCc1nc(N)nc2c1C(=O)CC(C)(C)C2
  -15, 3, 6, -7, 8157, 1.8, -2
O=C(c1cc2ccccc2oc1=O)N(Cc1ccc2c(c1)OCO2)Cc1ccco1
  -5, -40, -10, 12, 9518, 11, 13
COc1ccc(N(CC(=O)NC2CCCCC2)C(=O)c2ccc(C)s2)c(OC)c1
  -7, -6, 0, -5, 4357, 5.3, -1
CS(=O)(=O)N1CCC(C(=O)NCc2ccco2)CC1
  0, 4, 0, 0, 9372, -3.7, -6
CC(=NNS(=O)(=O)c1ccc(C)cc1)c1ccc(C)s1
  ., ., 5, 8, ., -1.3, 6
Cc1oc(N=Cc2cccc([N+](=O)[O-])c2)c(C#N)c1C
  ., ., 5, 0, ., 2.4, 12
Cc1cc(=O)oc2cc(OCC(=O)OC(C)C(=O)NC3CCCC3)ccc12 (configuration not stated)
  -2, -30, 2, 2, 4540, -0.8, -10
N#Cc1ccc(Oc2ccc(C(N)=O)cc2)cc1C#N
  0, -17, 4, 1, ?, 14, 1
C/C=C(/C)C(=O)Nc1cccc(C2=NOC3(C2)C[C@@H](C(N)=O)N(C(=O)[C@H]2CCC(=O)N2)C3)c1 (some centres not stated)
  0, -13, ., ., 3879, ., .
O=C(Nc1ccccc1Br)C1CCCN1S(=O)(=O)c1cccc2nsnc12 (configuration not stated)
  -3, -14, -3, 3, 4950, 2.9, 8
Cc1ccccc1OCC(=O)OCC(=O)c1ccc(OCc2ccccc2)cc1
  0, -36, 6, -6, 2456, 3.2, 13
NC(=O)C1CCN(C(=O)CSc2nc(O)cc(=O)[nH]2)CC1
  -7, -8, ., ., 3978, ., .
COc1ccc(C=CC(=O)c2ccc3ccccc3c2O)cc1CN1CCOCC1
  ., ., -2, 6, ., -2.3, 7
COc1ccc(C(=O)N[C@H](C(=O)Nc2nc3c(s2)CCCC3)C(C)C)cc1
  -3, -59, -5, 0, 2564, 2.1, -19
CCOC(=O)/C=C/C(=O)OCC(=O)Nc1ccc(OC)c(Cl)c1
  -12, -11, 8, 6, 2443, 1.9, 15
O=C(Nc1nc2ccccc2[nH]1)C1CC1
  -7, -36, 2, 2, 4018, -1.5, -4
CC(C)c1cc(C(=O)NN=Cc2ccoc2)c(O)c(C(C)C)c1
  ., ., 4, 8, ., 5.0, 14
COCCCNC(=O)C1=CCN(S(=O)(=O)c2ccc(OC)cc2)CC1
  18, -6, 4, 2, 4730, -0.1, 11
CCN1CC2C3C(=O)N(Cc4ccccc4)C(=O)C3[C@](C)(C1=O)N2C(=O)c1ccc(Cl)c(Cl)c1 (some centres not stated)
  ., ., 4, 2, ., 5.3, 20
Cc1ccc(S(=O)(=O)Nc2ccc3cc([N+](=O)[O-])ccc3c2[N+](=O)[O-])cc1
  ., -17, 75, 2, 3767, 71, 20
CCCCNc1nnc(SCC(=O)c2c[nH]c3ccccc23)s1
  -10, -14, 1, 9, 5750, 4.7, 18
Cc1cc(C)nc(NC(=O)c2cc(-c3ccc(C)s3)nc3ccccc23)c1
  -2, -13, -1, 5, 6173, -4.8, 6
COc1ccc(CCNC(=O)CSc2ccccc2)cc1OC
  -20, 8, 4, 0, 2822, 5.7, 7

An excerpt from above, limited to Sa ugtP lethal and Bead autofluor:
mol | Sa ugtP lethal | Bead autofluor
Oc1ccc(C[C@H]2CNC(=S)N2CCc2cc(C(F)(F)F)cc(C(F)(F)F)c2)cc1 | . | 3941
CC(=O)Nc1cccc(C(=O)Nc2nc(C)cs2)c1 | 3 | 4594

(next part)
Screens in order: BJeLR viability, PrP 5UTR inh, Sa ugtP lethal, Mtb hypoxia rep growth, Bead autofluor, Sa RN4220 lethal, Mtb hypoxia rep
CC(=O)Nc1ccc2nc(NC(=O)CN3CCOCC3)sc2c1
  1, -18, -3, -1, 3933, 2.0, 2
CCCCCCOC(=O)C(C#N)c1nc2ccccc2nc1N1CCCCC1 (configuration not stated)
  1, -25, 3, 6, 4183, 15, 4
CCOc1ccc(C(=O)N/N=C/c2cc([N+](=O)[O-])cs2)cc1
  0, -14, ., ., 3264, ., .
Cc1ccc(S(=O)(=O)Nc2ccc3c(c2)OCCO3)c(C)c1NS(C)(=O)=O
  6, -7, 6, 5, 3718, 2.4, -1
Cc1cc(C(=O)CCC(=O)NC(C)c2ccc(S(N)(=O)=O)cc2)c(C)s1 (configuration not stated)
  6, -1, 10, -5, 4953, 5.0, -3
N=c1n(Cc2ccccc2)c2ccccc2n1CC(O)c1ccco1 (configuration not stated)
  7, -3, -6, 13, ., -4.6, -2
Cc1nc(N2CCOCC2)c(C#N)c(C)c1Br
  -1, -4, 3, ., 4396, 4.8, .
C/C(=N\Nc1ncc(Cl)cc1Cl)c1ccc2c(c1)OCO2
  -3, -38, ., ., 4725, ., .
Cc1ccccc1NC1=NC(=S)N(c2ccccc2)C12CCCCC2
  -9, -5, 6, -5, 2073, 3.8, -9
O=C(NNS(=O)(=O)c1ccc(Cl)cc1)c1cnn(-c2ccccc2)c1-n1cccc1
  1, -21, -3, 2, 3690, 2.7, 7
CN(C)S(=O)(=O)c1ccc(N2CCOCC2)c(C(=O)O)c1
  -2, -6, -9, 7, 8540, 6.9, 8
Nc1cc2ccccc2oc1=O
  -4, 2, -11, 4, 2372, -13, 14
CC(=NNc1ccc([N+](=O)[O-])cc1)c1ccc(-n2nncc2C)cc1
  ., ., -18, 3, ., -7.0, 0
NC(=O)C1CCN(CCC(=O)Nc2ccc(F)c(F)c2)CC1
  1, -20, 10, 6, 3554, -1.1, 14
CCn1c(-c2cccnc2Cl)nc2ccccc21
  8, -9, -3, 8, 23168*, 6.0, 14
COc1ccc(CNC2CCCCC2)cc1
  7, -12, 1, 3, 22826*, 3.1, 6
CSc1ccc(S(=O)(=O)N2CCC(C(=O)Nc3ccc(NC(C)=O)cc3)CC2)cc1
  -10, -16, 1, 2, 3792, 1.6, 9
COC(=O)C1CCN(C(=O)CCC2CCCCC2)CC1
  3, -32, -4, ., 4147, 0.7, .
O=C(OCC(=O)c1ccccc1Cl)c1cnccn1
  8, -19, -7, 8, 2128, -2.2, -5
CCOc1ccc(OCC(=O)OC(C)C(=O)NC2CCCCC2C)cc1 (configuration not stated)
  ., -24, 6, 5, 3448, 3.8, 10
COCCOC(=O)c1c(C)oc2ccc(OC(=O)COc3c(F)c(F)c(F)c(F)c3F)cc12
  1, -49, -12, 6, 22277*, 1.6, 14
O=C(CSCc1nc2ccccc2[nH]1)Nc1ccc(Oc2ccccc2)cc1
  -11, -1, -15, -9, 2200, -1.1, 1
Cc1ccc2cc(CN(Cc3ccco3)C(=O)c3cccs3)c(=O)[nH]c2c1
  37, -25, -2, -4, 3386, -0.1, -2
Cc1cc(CNC(=O)CC2C(=O)NCCN2Cc2ccccc2)nn1C (configuration not stated)
  -3, -7, 2, 0, 6272, 4.0, 5
COC(=O)c1c(C(=O)OC)c(-c2ccccc2)n2c1CCC2
  0, 0, 2, 3, 8324, 0.9, 3
Cc1ccc(C2CC(=O)c3cnc(NC(=O)c4ccco4)nc3C2)cc1 (configuration not stated)
  -9, -10, 2, 3, 3278, 12, -2
Cc1nc(NCc2ccccc2)[nH]c(=O)c1CCC(C)C
  0, -31, -3, 2, 24000*, 6.8, 5
c1ccc(C[n+]2ccc3ccccc3c2)cc1
  -3, -18, 9, -6, 3683, 0.6, -5
O=C(CSc1ccc2nnc(-c3ccccc3)n2n1)N1CCCCC1
  -3, -19, -2, 4, 4802, 0.6, -8
Cn1c(O)c(/C=C2\C=Nc3ccccc32)c(=O)n(C)c1=O
  -4, -11, 6, -2, 3531, 4.1, 0

A second format for some results above:
SMILES	BJeLR viability	PrP 5UTR inh	Sa ugtP lethal	Mtb hypoxia rep growth	Bead autofluor	Sa RN4220 lethal	Mtb hypoxia rep
COCCOC(=O)c1c(C)oc2ccc(OC(=O)COc3c(F)c(F)c(F)c(F)c3F)cc12	1	-49	-12	6	22277*	1.6	14
O=C(CSCc1nc2ccccc2[nH]1)Nc1ccc(Oc2ccccc2)cc1	-11	-1	-15	-9	2200	-1.1	1
Cc1ccc2cc(CN(Cc3ccco3)C(=O)c3cccs3)c(=O)[nH]c2c1	37	-25	-2	-4	3386	-0.1	-2
Cc1cc(CNC(=O)CC2C(=O)NCCN2Cc2ccccc2)nn1C (configuration not stated)	-3	-7	2	0	6272	4.0	5
COC(=O)c1c(C(=O)OC)c(-c2ccccc2)n2c1CCC2	0	0	2	3	8324	0.9	3
Cc1ccc(C2CC(=O)c3cnc(NC(=O)c4ccco4)nc3C2)cc1 (configuration not stated)	-9	-10	2	3	3278	12	-2
Cc1nc(NCc2ccccc2)[nH]c(=O)c1CCC(C)C	0	-31	-3	2	24000*	6.8	5
c1ccc(C[n+]2ccc3ccccc3c2)cc1	-3	-18	9	-6	3683	0.6	-5
O=C(CSc1ccc2nnc(-c3ccccc3)n2n1)N1CCCCC1	-3	-19	-2	4	4802	0.6	-8
Cn1c(O)c(/C=C2\C=Nc3ccccc32)c(=O)n(C)c1=O	-4	-11	6	-2	3531	4.1	0

(further entries)
Screens in order: BJeLR viability, PrP 5UTR inh, Sa ugtP lethal, Mtb hypoxia rep growth, Bead autofluor, Sa RN4220 lethal, Mtb hypoxia rep
CC(=O)Nc1ccc(SCC(=O)Nc2ccc3c(c2)OCCO3)cc1
  ., -37, 3, 2, 3982, 1.2, 5
COc1cccc(OCc2nnc(-c3cccs3)o2)c1
  -4, -20, 1, 11, 4650, 9.1, 16
CC(C)/C=C/C(=O)N1CCC(N2CCC(C(=O)N3CCOCC3)CC2)CC1
  -27, -18, 1, 0, 4238, -1.9, -11
COC(=O)CCSc1cc([N+](=O)[O-])cc2c1c(C1OCCS1)nn2-c1ccccc1 (configuration not stated)
  4, -2, 34, 6, 3244, 37, 11
CCOC(=O)CCc1c(C)c2ccc(OCC)c(C)c2oc1=O
  -9, ., 3, -8, ., 2.5, 5
O=C(Nc1sc2c(c1C(=O)O)CCC2)c1ccccc1F
  12, -8, -15, 4, 2744, 13, 2
CC1CCN(C(=O)c2cc3ccccc3cc2O)CC1
  2, -16, 1, 6, 7204, 2.5, 2
CCOP(=O)(c1ccccc1)C(O)c1ccc(Br)cc1 (configuration not stated)
  24, -22, 12, 4, 2041, 0.2, 4
O=C(NC1CCCc2ccccc21)C1CCN(C(=O)c2sccc2-n2cccc2)CC1 (configuration not stated)
  -4, 8, 0, -3, 4823, -9.8, 7
Cc1nnsc1C(=O)Nc1ccc(Cl)cc1
  3, -20, 3, 4, 21839*, 1.1, 4
Cc1ccc(-c2csc(Nc3ccc(C(=O)O)cc3)[n+]2Cc2ccccc2)cc1
  -18, -27, 2, 26, 3165, 5.8, 11
O=C(Cn1ccc2ccccc2c1=O)NCC(=O)N1CCC2(CC1)OCCO2
  8, -19, 7, 2, 5317, 3.9, 4
COc1ccc(NC(=O)O/N=C/c2ccccc2Cl)cc1
  -9, -13, ., ., 4278, ., .
Cc1ccc(-c2nc3cc(Br)cnc3nc2-c2ccc(C)cc2)cc1
  -29, -16, 27, 12, 4410, -1.5, 1
Cc1ccc2c(C)c(C(=O)N(Cc3ccccc3)C3CCS(=O)(=O)C3)oc2c1 (configuration not stated)
  18, -5, 2, -1, 5661, -0.2, 14
CC(C)(C)OC(=O)N1O[C@H]2C[C@@H]1[C@@H]1[C@@H]2N=NN1C12CC3CC(CC(C3)C1)C2
  ., 6, 3, 8, 3565, 7.1, 4

High-throughput results as filed in PubChem.
